S aureus helic: S. aureus DNA helicase inhibition | purified S. aureus helicase, fluorescence unwinding assay; about half of the hits fall short of the stated cut | inhibition, %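 (tested at about 80 µM)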 | 120,000 compounds, 0.05% hits;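 active = both duplicates at 50% or more, or one of them with a favoured structure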;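 note: 0% = mean of negative control wells and 100% = mean of positive control wells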
MgrA DNA FP: S. aureus MgrA-DNA binding modulation. fluorescence polarization. AID 602314. 84,000 compounds, 0.13% hits. inhibition, %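 (about 10 µg/mL by stock and volumes)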;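 active = above 50% in either of two replicates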;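 note: 0% = protein plus DNA without compound and 100% = DNA alone without protein; higher means less MgrA bound to DNA so lower polarization; one replicate is shown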
Active calls of the source: *; . = not tested or not shown; & = joins results of further samples. These rows are one share of the data; the hit share may differ from the screen's.

SMILES | S aureus helic | MgrA DNA FP
S=c1[nH]c(=S)c2cnc(N3CCc4ccccc43)nc2[nH]1 | . | 4.0
CCOC(=O)N1CCN(CC(O)COc2cc(C)ccc2C(C)C)CC1 (stereo unspecified) | 11.0 | .
COc1ccccc1C(=O)NCc1ccc2[nH]c(C)cc2c1 | 9.0 | .
CCOC(=O)COc1ccccc1C#N | . | -2.4
COc1ccc(CNc2ccc(NC(=O)c3ccco3)c(C)c2)cc1 | -15.0 | 2.2
COC(=O)c1cc(S(=O)(=O)C(C)C)c(S(C)(=O)=O)s1 | 8.0 | .
COC(=O)c1ccc(COC(=O)C2CCN(C(=O)c3ccc(Cl)cc3)CC2)o1 | -6.0 | .
NC(=O)CN1C(=O)C(O)(CC(=O)c2ccccc2)c2ccccc21 (stereo unspecified) | 6.0 | 0.8
O=C(NC1CC2CCC(C1)N2C(=O)NC1CCCCC1)NC12CC3CC(CC(C3)C1)C2 (stereo unspecified) | 6.0 | -2.5
Cc1cccc(C)c1NC(=O)c1cnc(NC(C)C)cc1C(F)(F)F | . | -3.2
C=C(C)CN(CC)Cc1ccc(C(=O)OC)cc1 | 3.0 | -1.8
Cc1cc(C)nc(SCCS(=O)(=O)Cc2ccccc2)n1 | -26.0 | .
NNC(=O)c1csc(CS(=O)(=O)c2ccc(Cl)cc2)n1 | . | -1.9
CCCc1cnc(N2CCOCC2)nc1 | . | -2.0
N#CCc1ccc(N2C(=O)CCC2=O)cc1 | . | -1.3
Cc1ccc(C(=O)OCCCCN2C(=O)c3ccccc3C2=O)cc1NC(=O)c1ccco1 | 13.0 | .
NC(=O)c1ccccc1N1CCCCC1 | . | -0.8
CC1CC(C)(C)NC(=S)N1CCCC(=O)Nc1ccc2c(c1)OCCO2 (stereo unspecified) | -26.0 | .
COc1ccc(CCNc2nnc(Cc3cccnc3)c3ccccc23)cc1OC | 2.0 | .
N#Cc1ccccc1OCCCCSc1ncccn1 | 5.0 | -0.7
O=S(=O)(c1ccc(Cl)cc1)N1CCN(Cc2ccccc2)CC1 | . | -1.2
COc1ccc(CCNC(=O)c2ccc([N+](=O)[O-])cc2)cc1OC | . | 0.3
Cc1cc(C(=O)CSc2nnc3sc4ccccc4n23)c(C)n1CCc1ccccc1 | 7.0 | .
CC(=O)N1C(=O)N(C)C2C1N(C(C)=O)C(=O)N2C (stereo unspecified) | 31.0 | .
COc1ccc(-c2cc(C(=O)N3CCN(Cc4ccccc4)CC3)[nH]n2)cc1 | -22.0 | .
O=C(CN1C=NS(=O)(=O)c2ccccc21)N1CCCCCC1 | 16.0 | .
CSc1ccccc1C(=O)NCC(c1ccco1)N(C)C (stereo unspecified) | -10.0 | .
COC(=O)c1ccc(NC(=O)C2CC(=O)N(Cc3ccc4c(c3)OCO4)C(=Nc3ccc(OC)cc3)S2)cc1 (stereo unspecified) | . | 0.1
Cc1[nH]c(SCC(=O)NCCN2CCOCC2)nc1Cc1ccccc1 | -3.0 | .
CCN(CC)S(=O)(=O)c1cccc(C(=O)Nc2nncs2)c1 | 1.0 | 4.0
COc1cc(I)c(OC)cc1C | . | -1.6
CC(=O)NC1(C)CCC(C(C)(C)C#N)C1 (stereo unspecified) | 8.0 | .
O=C(CSc1nccc(=O)[nH]1)Nc1ccc(Oc2ccccc2)cc1 | 9.0 | 1.3
COC(=O)c1cc(OC)c(OC)cc1NC(=O)CCC(=O)O | . | 1.8
O=c1nc2n(c3cc(Cl)c(S(=O)(=O)N4CCOCC4)cc13)CCC2 | -20.0 | .
CCOc1ccc(CCNC(=O)Nc2cn(C)c(=O)c3ccccc23)cc1OCC | -5.0 | .
N#CCC(=O)Nc1ccccc1C(F)(F)F | 0.0 | .
CN(C(=O)Cn1ncc2c1-c1ccccc1OC2)c1ccccc1 | 12.0 | .
O=S(=O)(Cc1nc(-c2ccsc2)no1)c1ccc(Cl)cc1 | . | -2.5
O=C(CSc1ncc(C(F)(F)F)cc1Cl)NCCCN1CCCC1=O | 9.0 | .
O=C(c1cnn(-c2ccccc2)n1)N1CCCN(S(=O)(=O)c2ccc(F)cc2)CC1 | 16.0 | .
O=C(Cc1coc2ccc3ccccc3c12)Oc1ccc(-c2nnco2)cc1 | 15.0 | .
Cc1ccc2c(cnn2C(=O)CCC(=O)N2CCCCC2C)c1 (stereo unspecified) | -2.0 | -2.2
CCN(CC)c1nc(N2CCN(C)CC2)nc2ccccc12 | -3.0 | -1.6
C(=C\c1ccncc1)/c1ccccc1 | . | -0.6
NC(N)=N/N=C/C=C/c1ccccc1 | -4.0 | .
N#CC1CN(C(c2ccccc2)c2ccccc2)C1 | . | 2.1
C=CCNC(=S)NNc1nccc(-c2cccnc2)n1 | 14.0 | .
CN(C(=O)COC(=O)c1cccs1)c1ccccc1 | 6.0 | .
COc1cccc(C2C3=C(CC(C)(C)CC3=O)Nc3ccccc3N2C(=O)Cc2ccccc2)c1 (stereo unspecified) | . | -0.5
CC(C)CCn1c(Br)nc2c1c(=O)n(Cc1ccccc1)c(=O)n2C | -1.0 | 0.0
Cc1ccc(CNc2ncnc3nc[nH]c23)cc1 | 23.0 | .
CCN1C(=O)/C(=C2/C=Cc3ccccc3N2C)OC1=S | 3.0 | 19.5
CC(NC(=O)c1ccccc1)c1nc(-c2ccccc2)no1 (stereo unspecified) | 22.0 | .
Cc1cc(F)ccc1S(=O)(=O)Nc1ccccc1C(=O)OCC(=O)N1CCCC1=O | 4.0 | .
COc1ccccc1NS(=O)(=O)/C=C/c1ccccc1 | -14.0 | .
O=C(O)c1ccccc1OCc1ccccc1 | -2.0 | -0.5
CC1CN(c2cc(-c3ccccc3)c3ccccc3n2)CC(C)O1 (stereo unspecified) | 24.0 | .
Cc1c(-c2ccccc2OC(=O)c2ccccc2)[nH]c2ccccc12 | 12.0 | -2.0
CCCCc1ccc(NC(=O)COC(=O)c2ccc(Cl)nc2)cc1 | -8.0 | 3.0

Given with two lines to a compound: 3 of the compounds above.
Below each SMILES: S aureus helic | MgrA DNA FP
- CCCCc1ccc(NC(=O)COC(=O)c2ccc(Cl)nc2)cc1
  -8.0 | 3.0
- O=C(O)c1ccccc1OCc1ccccc1
  -2.0 | -0.5
- CCN(CC)c1nc(N2CCN(C)CC2)nc2ccccc12
  -3.0 | -1.6

Later entries
SMILES | S aureus helic | MgrA DNA FP
O=C(COc1ccc(Br)cc1)OCC(=O)N1CCCCC1 | 0.0 | -1.1
Cc1cc(Cl)ccc1OCCCC(=O)NC1(C)CCS(=O)(=O)C1 (stereo unspecified) | 21.0 | .
N/C(=N\OC(=O)c1ccc2c(c1)OCO2)c1ccc(Cl)cc1 | 41.0 | .
Cc1nccn1Cc1cccc2ccccc12 | 2.0 | 1.8
CC1CCCCN1C(=O)CSC1=NS(=O)(=O)c2ccccc2N1 (stereo unspecified) | 1.0 | .
CCOC(=O)c1c(NC(=O)CCN2C(=O)c3cccc4cccc(c34)C2=O)sc2c1CCC2 | . | -0.3
CCN1CC2CCCC3(C1)C(=O)NC1(CCCCC1)N=C23 (stereo unspecified) | 2.0 | 1.4
Nc1nc2c(c3c1c(=O)oc1ccccc13)CCCC2 | -2.0 | -0.1
Cc1ccc(-c2csc(CS(=O)(=O)C(C)(C)C)n2)cc1 | . | -0.4
CCC(COc1nnnc2ccccc12)NS(=O)(=O)c1ccc(-n2cnnn2)cc1 (stereo unspecified) | -25.0 | .
O=c1c(F)cn(C2CCCO2)c(=O)n1Cc1ccccc1F (stereo unspecified) | -11.0 | .
COc1cc(C2CC(=O)C3=C(C)Nc4ccccc4N=C3C2)cc(OC)c1OC (stereo unspecified) | 5.0 | 4.4
Cc1ccn2c(NC3CCCC3)c(-c3cccnc3)nc2c1 | 4.0 | 0.1
O=C(CCCCc1cccs1)Nc1ccccc1F | -3.0 | -0.2
Nc1nnc(C(=O)c2ccccc2N)s1 | 1.0 | 2.8
COc1ccccc1C(C#N)N1N=C(C)CC1c1ccccc1 (stereo unspecified) | 1.0 | -1.5
COc1ccc(-n2cc(-c3ccccc3)c3c(N4CCCCC4)ncnc32)cc1 | 9.0 | 1.1
O=C(O)CCCN1CCCC1=O | 2.0 | -5.2
COC(=O)CNC(=O)C12CC3CC(C)(CC(C)(C3)C1)C2 | 19.0 | 1.1
C=CCN(Cc1nc(-c2ccccc2)no1)C(=O)Nc1ccccc1 | 0.0 | -1.2
O=S(=O)(Cc1ccccc1)N1CCCCCC1 | 5.0 | -2.7
COC(=O)C1=CC=C(c2ccc(OC)cc2)SC1 | . | 0.4
O=C1/C(=C/c2ccc(N3CCOCC3)cc2)CCc2ccccc21 | -7.0 | 3.3
CSc1ccc(-c2cn3ccsc3n2)cc1 | 6.0 | .
O=C1C=CC(=O)N1c1ccccc1Br | -19.0 | -4.0
O=C(NCc1ccc(Cl)c(Cl)c1)c1cccnc1OCC(F)(F)F | . | 1.3
O=c1[nH][nH]c(=S)n1C1CCCCC1 | 14.0 | .
COC(=O)C1=C(C)Nc2[nH]c(=S)[nH]c(=O)c2C1c1ccccc1 (stereo unspecified) | -9.0 | .
CCCCn1c(SCC(=O)N(C(C)C)C(C)C)nc2c1c(=O)n(C)c(=O)n2C | 10.0 | 0.4
CC(=Nc1ccccc1)c1nc(-c2ccccc2)oc1O | . | -0.6
Cc1ccc2nc(-c3ccncc3)cc(-c3ccccc3)c2c1 | 7.0 | -1.4
OC1CN(C(c2ccccc2)c2ccccc2)C1 | . | -2.6&-1.4
COc1ccccc1N1CCN(S(=O)(=O)/C=C/c2ccccc2)CC1 | -10.0 | .
COc1ccc(C)cc1NC(=O)c1c(Cl)nc2sccn12 | -12.0 | -2.4
COC(=O)c1cc(COC(=O)C2(c3cccc(F)c3)CCCC2)oc1C | 3.0 | .
CCN(CC)S(=O)(=O)c1ccc(NC(=O)Nc2cn(CC(C)C)c(=O)c3ccccc23)cc1 | 6.0 | .
CC(=O)OC1CC(C(=O)O)N(S(=O)(=O)c2ccc(C)cc2)C1 (stereo unspecified) | -9.0 | .
O=S(=O)(c1ccccc1)c1nc(-c2cccs2)oc1NCc1ccccc1 | -1.0 | -1.2
CCN(CC)c1cc(C)c2cc(NC(=O)c3ccc(Br)o3)ccc2n1 | 7.0 | .
COc1ccc(S(=O)(=O)N(CCc2ccccc2)CC(=O)N2CCN(C)CC2)cc1Cl | 12.0 | 2.6

Part of the list above, reformatted:
Below each compound – S aureus helic	MgrA DNA FP
CCCCc1ccc(NC(=O)COC(=O)c2ccc(Cl)nc2)cc1
  -8.0	3.0
COc1ccc(CCNC(=O)c2ccc([N+](=O)[O-])cc2)cc1OC
  .	0.3
COC(=O)C1=C(C)Nc2[nH]c(=S)[nH]c(=O)c2C1c1ccccc1 (stereo unspecified)
  -9.0	.
CCCc1cnc(N2CCOCC2)nc1
  .	-2.0
Cc1cc(F)ccc1S(=O)(=O)Nc1ccccc1C(=O)OCC(=O)N1CCCC1=O
  4.0	.
Cc1cccc(C)c1NC(=O)c1cnc(NC(C)C)cc1C(F)(F)F
  .	-3.2

Continued:
SMILES | S aureus helic | MgrA DNA FP
CCN1C(=O)c2ccccc2Sc2ccc(C(=O)NCC3CCCO3)cc21 (stereo unspecified) | 9.0 | -0.2
O=C1NC(=Nc2ccccc2O)CS1 | -1.0 | .
CCC(CC)NC(=O)C1C(=O)N(C)C2(C)CC1c1ccccc1O2 (stereo unspecified) | 0.0 | .
CCN(CC(=O)NCc1ccc(F)cc1)C(=O)Cc1coc2cc3c(cc12)CCC3 | -9.0 | .
COC(=O)C1=C(CN2CC(C)CC(C)C2)NC(=O)NC1c1ccc(OC)cc1 (stereo unspecified) | 0.0 | 0.2
O=C1Nc2ccccc2S/C1=C\C(=O)N1CCN(Cc2ccccc2)CC1 | 17.0 | .
O=C(O)C1CCN(C(=O)C2CC2)CC1 | -13.0 | .
Cn1c(=NC(=O)COc2ccccc2)sc2ccccc21 | 10.0 | .
CN(CC(=O)Nc1ccc(-c2nnc3n2CCCCC3)cc1)S(=O)(=O)c1ccc(Cl)s1 | -7.0 | .
COC(=O)C1=C(C)N=c2s/c(=C/c3ccc(OC(C)=O)c(OC)c3)c(=O)n2C1c1ccc(OC(C)=O)cc1 (stereo unspecified) | . | -0.6
CCOC(=O)c1cc2c(=O)n3ccccc3nc2n(C)c1=NC(=O)c1cccc(C)c1 | 7.0 | -0.5
CC1=CC(=C2C(=O)c3ccccc3C2=O)C=C(C)N1CCN1CCOCC1 | 4.0 | .
CCCCOc1ccccc1C(=O)NCC(=O)NN | 2.0 | -0.8
CC1CN(C)C(C)/C(=C\c2ccco2)C1=O (stereo unspecified) | 0.0 | 0.7
COc1ccc(NC(=O)Cn2ncc3c([nH]c4ccccc43)c2=O)cc1 | -26.0 | .
Cc1c(C(=O)NCc2cccc(Cl)c2)oc2c1-c1[nH]ncc1CC2 | 4.0 | 0.0
O=C(OCc1ccc2nonc2c1)c1c2c(nc3ccccc13)CCC2 | 17.0 | .
CSc1cccc(NC(=O)c2nnn(CC(=O)Nc3cc(C)cc(C)c3)c2N)c1 | -18.0 | .
COC(=O)COc1ccccc1O | -19.0 | -2.2
CCCCN(C)Cc1cccc(OC)c1OC | 9.0 | 0.4
COc1cc2cc(C)nc(C)c2cc1OC | 8.0 | 4.7
CC(C)NC(=O)CCc1nnc2n(Cc3ccc(Cl)cc3)c(=O)c3ccccc3n12 | -27.0 | .
CSc1scc(N)c1S(=O)(=O)C(C)C | . | 0.8
Cc1ccc(-c2csc(NC(=O)/C=C/c3ccccc3)n2)o1 | 12.0 | .
Cc1ccc(C=C2C(=O)NC(=O)NC2=O)cc1 | 5.0 | 13.3
CCOc1ccc(N=CC2=C(O)CC(c3ccco3)CC2=O)cc1 (stereo unspecified) | 26.0 | .
CC1(C)Cc2ccccc2C(c2cc3ccccc3oc2=O)=N1 | 6.0 | 0.0
Cn1c(=O)c(Cc2ccccc2)c(OC(=O)c2ccccc2)c2ccccc21 | . | 4.6
COc1ccc(Br)c(C(=O)/C(C#N)=N/O)c1 | -12.0 | .
O=C(O)CSC1=NCCN1 | -1.0 | -0.2
CC(C)(C)NC(=O)CSc1nnc(Cc2ccc3c(c2)OCO3)n1C1CCCCC1 | 11.0 | -0.9
COc1ccc(-n2cnc3ccccc3c2=O)cc1OC | 11.0 | -1.5
